NPR1 antag: Natriuretic polypeptide receptor (hNpr1) antagonism - Primary qHTS; Atrial natriuretic peptide receptor 1 (Homo sapiens), P16066; HEK293 hNpr1 GloSensor cGMP, ANP-stimulated luminescence; Potency, µM (top dose mostly 46.3 µM), without a hit: at the highest dose activity change, negative = inhibition, hits mostly inhibitors; 76,000 compounds, 1.6% hits; active = well fitted inhibition curve with a large enough effect; inconclusive = small, poorly fitted or top-dose-only effect; inactive = no such curve, though single readings can be large or run the other way;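 note: nearly all actives have a fitted effect of over 60% in size; nearly all hits also lower the signal before the agonist is added; a reference antagonist and vehicle were the controls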
Target sequence (P16066 whole entry, looked up): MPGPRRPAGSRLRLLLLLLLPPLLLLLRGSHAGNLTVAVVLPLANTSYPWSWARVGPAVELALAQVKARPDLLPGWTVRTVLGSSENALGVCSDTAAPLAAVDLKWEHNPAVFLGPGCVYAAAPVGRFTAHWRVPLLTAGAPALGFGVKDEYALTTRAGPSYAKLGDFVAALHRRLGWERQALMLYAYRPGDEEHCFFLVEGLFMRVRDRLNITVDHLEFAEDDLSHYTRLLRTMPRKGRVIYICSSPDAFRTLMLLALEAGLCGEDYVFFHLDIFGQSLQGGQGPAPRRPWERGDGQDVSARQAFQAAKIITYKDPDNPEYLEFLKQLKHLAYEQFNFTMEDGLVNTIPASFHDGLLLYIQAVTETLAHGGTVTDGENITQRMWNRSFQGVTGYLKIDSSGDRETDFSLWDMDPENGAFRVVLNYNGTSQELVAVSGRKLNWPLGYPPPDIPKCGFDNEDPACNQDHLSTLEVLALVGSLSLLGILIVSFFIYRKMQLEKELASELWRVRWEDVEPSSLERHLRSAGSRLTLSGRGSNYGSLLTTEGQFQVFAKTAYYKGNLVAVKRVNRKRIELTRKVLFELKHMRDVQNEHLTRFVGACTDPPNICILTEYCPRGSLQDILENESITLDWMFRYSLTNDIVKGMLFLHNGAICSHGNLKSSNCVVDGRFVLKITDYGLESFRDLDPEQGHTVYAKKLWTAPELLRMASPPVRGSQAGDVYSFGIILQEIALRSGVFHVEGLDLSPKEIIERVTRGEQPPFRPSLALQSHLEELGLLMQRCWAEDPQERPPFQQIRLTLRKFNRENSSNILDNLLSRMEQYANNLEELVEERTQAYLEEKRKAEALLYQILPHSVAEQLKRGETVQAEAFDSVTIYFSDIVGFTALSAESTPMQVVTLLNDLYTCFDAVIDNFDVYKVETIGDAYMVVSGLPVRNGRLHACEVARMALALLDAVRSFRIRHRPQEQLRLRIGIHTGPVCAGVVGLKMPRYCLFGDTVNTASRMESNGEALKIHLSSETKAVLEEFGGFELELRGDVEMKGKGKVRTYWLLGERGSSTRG
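HEK293 cells stably expressing human Npr1 and cGMP GloSensor pGS-40F, loaded 2 h with 2% GloSensor reagent, given compound 30 min at room temperature. Luminescence read before and 20 min after 0.1 nM hNppA.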
* = called active by the depositor; [ ] = dose if it differs, or a comment. % is set by controls: 0 for no effect and ±100 for the full control effect; potency is the fitted concentration of half-maximal effect. Only part of the results is shown; the hit share may differ from the screen's.

For CO[C@H]1[C@H](NC(=O)c2ccc3c(c2)OCO3)c2ccccc2C12CCNCC2 the results were NPR1 antag 1%.
CS(=O)(=O)N1CCC(OC2CCN(C(=O)Nc3ccccc3)CC2)CC1 was read as NPR1 antag -5%.
Screening O=C(NC1CCCC1)N1CCC(Nc2cccnc2)C1 (configuration not stated) returned NPR1 antag -8%.
COc1cc(Cl)c(C)cc1NC(=O)Cn1c(C)cc2nc3n(c(=O)c21)CCCCC3 was read as NPR1 antag -18%.
For COCCCNc1ncnc2sc3c(c12)CCN(Cc1cccnc1)C3 the results were NPR1 antag -10%.
COc1cccc(CNc2ncnc3c2CN(c2ccc([N+](=O)[O-])cc2)C(=O)N(C)C3)c1 was read as NPR1 antag 2%.
COc1ccc(C(=O)N2CCC(N3C(=O)C4(CCCCC4)C3c3ccccc3)CC2)cn1 (configuration not stated) was read as NPR1 antag 4%.
Screening CSc1cccc(NC(=O)Cn2c(N3CCCCC3)nc(C)c(C)c2=O)c1 returned NPR1 antag -2%.
For O=C1CC2(CCN(C(=O)c3ccc4c(c3)OCO4)CC2)CN1CC1CCCO1 (configuration not stated) the results were NPR1 antag -9%.
Screening O=C(NC1CCN(c2cn[nH]c(=O)c2)CC1)c1ccccc1 returned NPR1 antag -1%.
Cn1ccnc1CN1C[C@@H]2C[C@H]1C(=O)N(Cc1ccccn1)c1ccccc1O2 was read as NPR1 antag 0%[70.6 µM].
For COc1ccc(C(=O)NC2CCN(c3cnn(CC4CC4)c(=O)c3)CC2)c(OC)c1 the results were NPR1 antag inconclusive.
`Cc1ccc(N2CCN(C(=O)c3ccc(Cn4cccn4)o3)CC2=O)cc1` gave NPR1 antag 7%.
Screening CC(=O)N1CCC(N2C[C@@H](F)[C@@H](OCc3nc4cc(C)c(C)cc4[nH]3)C2)CC1 returned NPR1 antag -1%[70.6 µM].
For CCCN1C(=O)CCc2cc(NC(=O)c3ccc(C)s3)ccc21 the results were NPR1 antag -10%.
`COc1cccc(CCC(=O)N2CCN(c3cc(-c4ccccc4)[nH]n3)CC2)c1` gave NPR1 antag -2%.
`Cc1ccc(C(=O)N2[C@@H]3CC[C@H]2CC(NC(=O)c2ccncc2)C3)cc1F` (some centres not stated) gave NPR1 antag 2%.
CNC(=O)[C@@H](c1ccccc1)N1CCC[C@H]1C(=O)N(C)Cc1ccccc1 was read as NPR1 antag -2%[70.6 µM].
`COc1ccc(CN2C[C@@H]3C(=O)N(CCN4CCc5ccccc5C4)C(=O)[C@@H]3C2)c(OC)c1` gave NPR1 antag -11%.
`NC(=O)[C@H](CC1CCCCC1)NC(=O)[C@@H]1CN(S(=O)(=O)c2ccccc2)CCN1C(=O)c1cccs1` gave NPR1 antag -6%.
`CC1(C(=O)N2CCC(c3ccccc3)CC2)CCc2cnc(Nc3ccncc3)nc21` (configuration not stated) gave NPR1 antag inconclusive.
Screening Cc1ccc(CN2CCCC(c3nn(-c4ccc(Cl)cc4)c(=O)[nH]3)C2)cc1 (configuration not stated) returned NPR1 antag -26%.
For O=C(CN1CC2CC(C1)[C@H]1CCCC(=O)N1C2)Nc1ccc2c(c1)OCCO2 (some centres not stated) the results were NPR1 antag -4%.
CCCS(=O)(=O)N1CCCN(Cc2ccncc2)C(c2ccccc2)CC(=O)NCC1 (configuration not stated) was read as NPR1 antag -4%.

Grouped by structure, those above with a Cl atom.
COc1cc(Cl)c(C)cc1NC(=O)Cn1c(C)cc2nc3n(c(=O)c21)CCCCC3 was read as NPR1 antag -18%.
Screening Cc1ccc(CN2CCCC(c3nn(-c4ccc(Cl)cc4)c(=O)[nH]3)C2)cc1 (configuration not stated) returned NPR1 antag -26%.

(more compounds)
`COc1cc2c(cc1OC)C(C[C@H]1CN(C(=O)N3CCOCC3)CC[C@H]1CC(=O)O)=NCC2` gave NPR1 antag 4%.
`Cc1ccc(C2Cn3nnc(-c4noc(-c5cccnc5)n4)c3CO2)cc1` (configuration not stated) gave NPR1 antag -22%.
COc1ncccc1-c1cc2[nH]ccc2c(C(=O)NCc2c(C)cc(C)[nH]c2=O)n1 was read as NPR1 antag 0%[70.6 µM].
For CCC(C)NC(=O)Cc1csc2nc(C)c(-c3cc(C)n(-c4ccc(C)cc4)n3)c(=O)n12 (configuration not stated) the results were NPR1 antag -1%.
`Cn1cccc1C(=O)NCC(=O)N1CCCCCCNC(=O)CC1c1ccccc1` (configuration not stated) gave NPR1 antag -10%.
Screening O=C(Nc1ccc(Cl)cc1)N1CCn2c(nn(-c3ccc([N+](=O)[O-])cc3)c2=O)C1 returned NPR1 antag inconclusive.
Cn1cnc(S(=O)(=O)N[C@H]2CCN(C(=O)c3ccco3)[C@H](C(=O)N[C@H](Cc3ccccc3)C(N)=O)C2)c1 was read as NPR1 antag 5%.
Screening O=C(OCc1ccccc1)N1CCOCC12CCN(Cc1ccc3[nH]ccc3c1)CC2 returned NPR1 antag -21%[70.6 µM].
`Cc1ccc(-c2cc(C(=O)N3CCCC3c3nncn3C(C)C)[nH]n2)cc1C` (configuration not stated) gave NPR1 antag 5%.
CN(C)[C@@H]1C[C@H](Cn2cc(-c3cccnc3)nn2)[C@@H](O)[C@H]1O was read as NPR1 antag 4%[70.6 µM].
`Cc1nc(N2CCC(NCCN3CCCOC3=O)CC2)c2ccsc2n1` gave NPR1 antag 0%.
Cc1ccc(NC(=O)C2CCN(c3cc(C(F)(F)F)ncn3)CC2)c(C)c1 was read as NPR1 antag inconclusive.
COC(=O)c1ccc(CN2C(=O)[C@@H]3C[C@@H](O)CN3C3(CN(Cc4ccccc4F)C3)C2=O)cc1 was read as NPR1 antag -20%.
For Cn1nccc1C(=O)N1[C@@H]2CC[C@H]1CC(NC(=O)c1ccncc1)C2 (some centres not stated) the results were NPR1 antag 1%.
`CCCNC(=O)N1C[C@@H](Oc2cccnc2)C[C@@H]1C(=O)NC` gave NPR1 antag 8%.
O=C1NCCCCCN(C(=O)Cc2ccccc2)[C@@H]2C[C@@H](C(=O)N3CCc4ccccc4C3)C[C@H]12 was read as NPR1 antag -1%.
Screening O=C(CCC1CCCC1)NCCC1CCN(C(=O)Nc2ccc(F)cc2F)CC1 returned NPR1 antag -1%.
CCCc1nc(C(=O)NC(CCn2cncn2)c2ccccc2)cs1 (configuration not stated) was read as NPR1 antag -2%.
`CCc1nnc([C@@H]2CC(F)(F)CN2C(=O)c2ccc3nc[nH]c3c2)o1` gave NPR1 antag 0%.
Screening Cc1ccc(NC(=O)c2ccccc2)c(NC(=O)C2CCN(CC(N)=O)CC2)c1 returned NPR1 antag 2%.
`CN1CC[C@H]2CN(C(=O)Nc3ccccc3-c3ccccc3)C[C@H]21` gave NPR1 antag 8%.
For CN(C)C(=O)c1cccnc1OC1CCN(S(=O)(=O)Cc2cccc(Cl)c2)C1 (configuration not stated) the results were NPR1 antag -3%.
O=C(NC1CCCCC1)O[C@@H]1CO[C@H]2[C@@H]1OC[C@@H]2Nc1nccc(-c2cccs2)n1 was read as NPR1 antag 10µM*.
COc1ccc(OC)c(CNC(=O)C(C)(C)C2CCOCC2)c1 was read as NPR1 antag -2%.

Pulled one by one from the list above (three):
Screening O=C(NC1CCN(c2cn[nH]c(=O)c2)CC1)c1ccccc1 returned NPR1 antag -1%.
`COc1cccc(CCC(=O)N2CCN(c3cc(-c4ccccc4)[nH]n3)CC2)c1` gave NPR1 antag -2%.
Screening O=C(Nc1ccc(Cl)cc1)N1CCn2c(nn(-c3ccc([N+](=O)[O-])cc3)c2=O)C1 returned NPR1 antag inconclusive.

(listing goes on)
Screening O=C(Nc1cnc(-c2ccccc2)nc1)c1ccc(F)c(F)c1 returned NPR1 antag 3%.
Screening COc1ccccc1OC1CN(C(=O)C(c2cccc(F)c2)N(C)C)C1 (configuration not stated) returned NPR1 antag -1%.
`CC1CCN(C(=O)C2CCN(c3nc(-c4ccccc4)nc4c3CCC4)CC2)CC1` gave NPR1 antag -2%.
CSc1cccc(NC(=O)c2ccc3c(c2)N(C)C2CCCCCN2C3=O)c1 (configuration not stated) was read as NPR1 antag -4%.
For CCN1CC2(CCN(C(=O)[C@H]3Cc4ccccc4CN3)CC2)CC1=O the results were NPR1 antag 6%.
For Cc1ccc(C(=O)N2CCC(N3CC4CCCN4C3=O)CC2)cc1 (configuration not stated) the results were NPR1 antag 3%[70.6 µM].
Screening COCCc1noc(-c2ccccc2OC2CN(S(=O)(=O)C(C)C)C2)n1 returned NPR1 antag 3%.
For COCc1cc(C[C@@H]2CC[C@H](O)[C@@H](CNCc3ccccc3OC)O2)no1 the results were NPR1 antag -1%[70.6 µM].
`COc1ccc(CN2C(=O)[C@@H]3C[C@@H](O)CN3C3(CN(C4CCC4)C3)C2=O)cc1` gave NPR1 antag -4%[70.6 µM].
`Cc1cccc(CC(=O)N2CC3CC(C2)[C@H]2CCCC(=O)N2C3)c1` (some centres not stated) gave NPR1 antag -3%.
`CN(C)Cc1nnc(C2CC(NC(=O)c3ccnnc3)C2)n1C` (configuration not stated) gave NPR1 antag 16%.
Cc1ccc(OCCC2CCN(C(=O)Cc3ccsc3)C2)cc1 (configuration not stated) was read as NPR1 antag inconclusive.
Screening O=C(Nc1ccc2ncnc(N3CCCCC3)c2c1)c1ccc(F)cc1F returned NPR1 antag -15%.
Screening CCc1noc(-c2cn(C3CCN(C(=O)c4cccc(Cl)c4)CC3)nn2)n1 returned NPR1 antag 3%.
Screening O=C(Nc1cccc2ccccc12)O[C@@H]1CO[C@H]2[C@@H]1OC[C@@H]2NCC1CCCCC1 returned NPR1 antag -22%[70.6 µM].
CCNC(=O)NC1(CCOC)CCN(Cc2cccc(C)c2)CC1 was read as NPR1 antag 7%.
Screening CS(=O)(=O)N(C1CCOCC1)C1CN(C(=O)c2cc3ccccc3[nH]2)C1 returned NPR1 antag 1%.
For O=C(N[C@@H]1CCC[C@@H]1C(=O)N1CCN(c2cccc(Cl)c2)CC1)c1ccncc1 the results were NPR1 antag -1%.
`Cc1nnnn1CCC(=O)N[C@@H]1COCC[C@@H]1OCc1cscn1` gave NPR1 antag 1%.
COc1ccc(-c2cc(-c3ccc4cn[nH]c4c3)cn3cncc23)cn1 was read as NPR1 antag -17%[70.6 µM].
Screening COCCCN1C(=O)CC[C@H]2CN(C(=O)c3ccc(CN)cc3)CC[C@H]21 returned NPR1 antag 6%.
`c1ccc(-c2nnc3n2CCN(CC2CCCCC2)C3)cc1` gave NPR1 antag -1%[70.6 µM].
Screening CCCNC(=O)C1N(C(C)C)C(=O)C12CCCC2 (configuration not stated) returned NPR1 antag 4%.
`COC[C@H]1CCCN1C(=O)CC[C@H]1CNC(=O)[C@@H]2[C@@H](CCN2Cc2ccc(C)cc2)N1C` gave NPR1 antag -6%.
Screening O=C(C1CCCCC1)N1CCC(N2CC3CC(C2)[C@H]2CCCC(=O)N2C3)CC1 (some centres not stated) returned NPR1 antag -1%.
CC(C)c1nccn1Cc1cc(C(=O)N(C)Cc2ccccc2Cl)n[nH]1 was read as NPR1 antag -1%.
`COc1cccc(OCc2nc(C(=O)N[C@H]3CCCCNC3=O)co2)c1` gave NPR1 antag 5%.
CN(C)c1nc(N)nc(CNC(=O)c2csc(Cc3ccccc3)n2)n1 was read as NPR1 antag 7%.
`Cc1cc(CNC(=O)[C@@H]2CCC[C@@H](NC(=O)c3cccnc3)CN(C)C(=O)C2)no1` gave NPR1 antag -1%[70.6 µM].
`CN(Cc1ccccc1)Cc1cc(C(=O)N(C)Cc2ccsc2)no1` gave NPR1 antag 3%.
`COc1ccccc1CNC(=O)c1cc2n(n1)CC(c1ccc3c(c1)OCO3)OC2` (configuration not stated) gave NPR1 antag -1%.
CC(C)c1nnc(C2CN(C(=O)c3cccn3C)CC23CCOCC3)o1 (configuration not stated) was read as NPR1 antag 3%.
Screening Cc1ccc(CC(=O)N2CCN(c3nnc4ccc(C(F)(F)F)cn34)CC2)cc1 returned NPR1 antag 4%.
`CCOc1ccc(-c2noc(-c3ncn4c3COC(c3ccc(F)cc3)C4)n2)cc1` (configuration not stated) gave NPR1 antag -12%.
Screening COc1ncccc1-c1nccc2c(=O)cc(-c3cccnc3)oc12 returned NPR1 antag 4%[70.6 µM].
For Cc1ccc(O[C@H]2COCC[C@H]2NC(=O)c2ccc(-c3ccn[nH]3)cc2)cn1 the results were NPR1 antag 7%.
`O=C1OC[C@@H]2CCN(Cc3ccncc3)Cc3ccc(F)cc3N12` gave NPR1 antag 4%[70.6 µM].
CC(=O)N1CCN(CC[C@H]2CN(C(=O)c3ccnc(Cl)c3)CC[C@H]2CC(=O)O)CC1 was read as NPR1 antag 0%.
Screening CC(C)CC(=O)NC1CCCc2c1[nH]c1ccc(Cl)cc21 (configuration not stated) returned NPR1 antag -13%.
Cc1ccc(C(=O)N2CCC(CCC(=O)O)CC2)cc1 was read as NPR1 antag -2%.
`O=C(CN1CCCc2nc(C3CC3)ncc2C1=O)NCc1ccco1` gave NPR1 antag 3%.
CC1CCN(c2ccc(-c3cccc(NC(=O)NC(C)C)c3)nn2)CC1 was read as NPR1 antag 2.2µM*.
Screening Cc1nc(N2CCCCC2)n(CC(=O)Nc2ccc(Br)cc2)c(=O)c1C returned NPR1 antag 1%.

Molecules above that have a CF3 group:
Cc1ccc(NC(=O)C2CCN(c3cc(C(F)(F)F)ncn3)CC2)c(C)c1 was read as NPR1 antag inconclusive.
Screening Cc1ccc(CC(=O)N2CCN(c3nnc4ccc(C(F)(F)F)cn34)CC2)cc1 returned NPR1 antag 4%.

Assay outcomes deposited in PubChem by National Center for Advancing Translational Sciences (NCATS).
